# Rango complex inh – qHTS Assay for Inhibitors of Rango (Ran-regulated importin-beta cargo) - Importin beta complex formation; Rango CFP/YFP FRET sensor + importin beta, 45 min; 0.031% of 340,000 active; Importin subunit beta-1 (Homo sapiens), Q14974; Potency, µM (top dose mostly 92.2 µM), for inactives: top-dose inhibition of complex formation; active = rising FRET ratio curve, often small or poorly fitted; inconclusive = mostly compound fluorescence or quenching in the first reads; inactive = flat curves in all reads;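 further: potency means the concentration at half of the fitted maximal effect; 0% = DMSO wells and 100% = buffer wells lacking importin beta; nearly all actives have a fitted effect of over 15% in size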
#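 FRET biosensor (snurportin 1 IBB flanked by EYFP and cerulean), 50 nM, with compound 5 min, then 0.125 microM importin beta in PBS, 1 mM DTT, 0.02% Tween-20, 0.1% BSA. CFP/YFP ratio read after 45 min at room temperature; pre-read flags interference.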
# miR-21 reporter – qHTS Assay for Modulators of miRNAs and/orActivators of miR-21; HeLa miR-21 FLuc reporter, luciferase, 48 h; 340,000 tested, under 10 active; Potency, µM (titrated, usually from 38.3 µM), for inactives: top-dose reporter change, positive = more light; active = well fitted rising curve with a large enough effect; inconclusive = small, poorly fitted or top-dose-only effect; inactive = no such curve, though single readings can be large or run the other way;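 further: % of control where 0% means no effect; miR-21 action dims this reporter so a rising signal means less miR-21 action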
#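 Using DMEM plus 10% FBS, HeLa miR-21-FLuc cells are incubated with test compounds (final up to about 40uM) for 48 hours; firefly luciferase signal is then imaged following reagent-mediated lysis.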
# GLA inh pH 4.5 – qHTS Assay for Inhibitors of Human alpha-Galactosidase at pH 4.5 | Alpha-galactosidase A (Homo sapiens), P06280 | purified enzyme, 4-MU-alpha-Gal fluorescence, pH 4.5 | activity change, negative = inhibition, % at 105 µM | 230,000 tested, under 10 active | AID 1467, 2008; inconclusive = small, poorly fitted or top-dose-only inhibition, or a rising curve; inactive = flat fitted curve, though single readings scatter; no compound was filed as active;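 further: 0% = full activity with enzyme and -100% = basal without enzyme; dose as in the result columns while the protocol names 77 µM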
# Target sequence (P06280 whole entry, looked up): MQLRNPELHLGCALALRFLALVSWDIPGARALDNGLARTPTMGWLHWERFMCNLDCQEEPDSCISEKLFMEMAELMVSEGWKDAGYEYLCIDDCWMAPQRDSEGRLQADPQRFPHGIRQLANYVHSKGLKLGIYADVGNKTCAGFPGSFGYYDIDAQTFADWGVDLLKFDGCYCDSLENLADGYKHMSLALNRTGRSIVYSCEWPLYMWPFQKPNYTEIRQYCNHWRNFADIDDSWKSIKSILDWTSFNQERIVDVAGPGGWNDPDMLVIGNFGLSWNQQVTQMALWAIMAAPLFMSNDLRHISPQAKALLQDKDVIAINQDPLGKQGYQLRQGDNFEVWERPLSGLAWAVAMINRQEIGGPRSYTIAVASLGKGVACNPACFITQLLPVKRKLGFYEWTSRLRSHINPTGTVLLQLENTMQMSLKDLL
# Rango release inh – qHTS Assay for Inhibitors of RanGTP induced Rango (Ran-regulated importin-beta cargo) - Importin beta complex dissociation | Snurportin-1 (Homo sapiens) + GTP-binding nuclear protein Ran (Homo sapiens) + Importin … | Potency, µM (titrated, usually from 46.1 µM), inactives show at the highest dose activity change, negative = inhibition | Biochemical FRET Rango-importin beta, RanGTP-induced dissociation | AID 540253, 2011 | 0.071% of 340,000 active; active means falling FRET ratio curve, often poorly fitted, with flat reads before Ran was added; inconclusive means other falling curves, or compound fluorescence or quenching; inactive means flat or rising ratio curve;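 further: potency means the concentration at half of the fitted maximal effect; % of control where 0% means no effect; nearly all actives have a fitted effect of over 45% in size; -100% = wells without RanGTP and RCC1; the record marks most hits as doubtful in a second field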
#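 Rango FRET biosensor (snurportin-1 IBB flanked by N-terminal EYFP and C-terminal CFP10) at 0.1 uM, with 0.25 uM importin beta in PBS, 1mM DTT, 0.02% Tween-20, 0.1% BSA. 0.6 uM Ran, 2mM GTP and 0.2 uM RCC1 were then added for 45 min at room temperature. Inhibition read as loss of FRET rise.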
# Numbers without * were called inactive; ? = inconclusive; . = not tested or not shown; & = joins results of further samples; [ ] = remark or other dose.
# Every second line gives: GLA inh pH 4.5 | miR-21 reporter | Rango complex inh | Rango release inh
> COc1cc(/C=C2\SC(=O)N(c3ccc(Cl)cc3)C2=O)cc([N+](=O)[O-])c1O
  -1.2 | -3.9% | ? | 9.8%
> CCOC(=O)/C(=N/Nc1ccccc1)N1CCCc2ccccc21
  -4.4 | 3.3% | 1.6% | 5.4%
> NC(=O)NC(=O)CSc1nc(C2CCCCC2)n(-c2ccccc2)n1
  -0.6 | -6.0% | -5.8% | -17.0%
> Cc1cccc(N2CCN(C(=O)Cn3ccc4ccccc4c3=O)CC2)c1C
  0.9 | 6.5% | -1.1% | 14.2%
> Nc1c([N+](=O)[O-])c(=O)oc2ccccc12
  -7.8 | -1.0% | -3.5% | 0.2%
> COc1cccc(NC(=O)N2CCCC2C(=O)Nc2ccc3c(c2)OCO3)c1 (centres undefined)
  2.4 | -10.4% | 0.1% | 51.8%
> Cc1cccc(NC(=S)NC(C)(C)CC(C)(C)C)c1
  4.1 | ? | 6.7% | 19.6%
> CCCCC(CCC(=O)O)(C(=O)OCC)c1csc(Nc2ccc(OCC)cc2)n1 (centres undefined)
  ? | -1.1% | 2.9% | 1.9%
> CC1(C)C(C=C(Cl)Cl)C1C(=O)N(Cc1cccc(Cl)c1)C1CCS(=O)(=O)C1 (centres undefined)
  -4.0 | 7.0% | 4.5% | -3.2%
> C/C(=C\C(=O)c1ccc(Br)cc1)NNC(=O)c1ccccc1
  . | . | 1.9% | 6.6%
> Cc1ccccc1N(C(=O)CNC(=O)c1ccco1)C(C(=O)NC1CCCCC1)c1cccnc1 (centres undefined)
  . | -1.7% | -0.8% | 2.2%
> Clc1cccc(-c2nnc3sc(-c4ccc5c(c4)OCO5)nn23)c1
  -1.9 | -3.2% | . | .
> CCc1nnc(NC(=O)CSc2nc(-c3ccccc3)nc3ccccc23)s1
  -0.7 | -3.5% | -0.6% | 0.5%
> Cc1cc(Br)ccc1NC(=O)CSc1nnc(CN2CCOCC2)n1C
  . | 7.7% | 0.7% | 17.9%
> Cc1cc(C)n(-c2ccc(C(=O)Nc3cccnc3Cl)cc2)n1
  7.4 | -10.4% | ? | 0.2%
> Nc1nc(Cl)cc(-c2ccccc2)n1
  1.8 | 3.7% | -1.4% | -16.1%
> O=C1N/C(=N\N=C\c2cccs2)SC1Cc1ccc(Cl)c(Cl)c1 (centres undefined)
  -11.0 | 0.3% | -3.2% | -2.4%
> CCC1CCCCN1C(=O)CCNS(=O)(=O)c1ccc2c(c1)oc(=O)n2C (centres undefined)
  . | -2.8% | 2.5% | 19.1%
> CCCc1cc(=O)[nH]c(SCC(=O)NC(=O)OCC)n1
  3.9 | 1.3% | 0.5% | 10.1%
> O=C(O)c1ccccc1/C=N/n1c(C2CCCCC2)n[nH]c1=S
  . | -0.8% | 3.1% | -0.4%

# As a working copy, part of the list above:
# Every second line gives: GLA inh pH 4.5 | miR-21 reporter | Rango complex inh | Rango release inh
> COc1cccc(NC(=O)N2CCCC2C(=O)Nc2ccc3c(c2)OCO3)c1 (centres undefined)
  2.4 | -10.4% | 0.1% | 51.8%
> Cc1cccc(NC(=S)NC(C)(C)CC(C)(C)C)c1
  4.1 | ? | 6.7% | 19.6%
> CCCCC(CCC(=O)O)(C(=O)OCC)c1csc(Nc2ccc(OCC)cc2)n1 (centres undefined)
  ? | -1.1% | 2.9% | 1.9%
> CC1(C)C(C=C(Cl)Cl)C1C(=O)N(Cc1cccc(Cl)c1)C1CCS(=O)(=O)C1 (centres undefined)
  -4.0 | 7.0% | 4.5% | -3.2%
> C/C(=C\C(=O)c1ccc(Br)cc1)NNC(=O)c1ccccc1
  . | . | 1.9% | 6.6%
> Cc1ccccc1N(C(=O)CNC(=O)c1ccco1)C(C(=O)NC1CCCCC1)c1cccnc1 (centres undefined)
  . | -1.7% | -0.8% | 2.2%
> Clc1cccc(-c2nnc3sc(-c4ccc5c(c4)OCO5)nn23)c1
  -1.9 | -3.2% | . | .
> CCc1nnc(NC(=O)CSc2nc(-c3ccccc3)nc3ccccc23)s1
  -0.7 | -3.5% | -0.6% | 0.5%
> Cc1cc(Br)ccc1NC(=O)CSc1nnc(CN2CCOCC2)n1C
  . | 7.7% | 0.7% | 17.9%
> Cc1cc(C)n(-c2ccc(C(=O)Nc3cccnc3Cl)cc2)n1
  7.4 | -10.4% | ? | 0.2%
> Nc1nc(Cl)cc(-c2ccccc2)n1
  1.8 | 3.7% | -1.4% | -16.1%
> O=C1N/C(=N\N=C\c2cccs2)SC1Cc1ccc(Cl)c(Cl)c1 (centres undefined)
  -11.0 | 0.3% | -3.2% | -2.4%
> CCC1CCCCN1C(=O)CCNS(=O)(=O)c1ccc2c(c1)oc(=O)n2C (centres undefined)
  . | -2.8% | 2.5% | 19.1%

# Following part.
# Every second line gives: GLA inh pH 4.5 | miR-21 reporter | Rango complex inh | Rango release inh
> S=C(NCc1ccco1)Nc1ccc(Oc2ccccc2)cc1
  -26.4 | -12.6% | ? | 22.4%
> CC1(c2ccccc2)NC(=O)N(CC(=O)N2CCN(S(=O)(=O)c3cccs3)CC2)C1=O (centres undefined)
  . | . | ? | 8.4%
> COc1cc2c(C(=O)NCc3ccc(C)o3)cn(CC(C)C)c(=O)c2cc1OC
  2.7 | 7.7% | -2.3% | -4.1%
> Cc1cc2c(Nc3ccc(C(=O)O)cc3)ncnc2s1
  . | 0.4% | 1.2% | -3.8%
> CCCCC(Sc1nc(C)c(Cc2ccccc2)c(=O)[nH]1)C(=O)O (centres undefined)
  . | 2.4% | -0.8% | -1.5%
> N#Cc1ccc(-c2ccc(OCC(=O)NCCCN3CCCC3=O)cc2)cc1
  1.2 | -1.5% | 1.0% | 0.6%
> CSc1nc2c(C)c(C)c(C)c(C)c2[nH]1
  -18.3 | 1.2% | 1.6% | 1.3%
> COc1ccc(C(=O)N2CCCCCC2)cc1OC1CCN(C(C)=O)CC1
  . | -1.7% | -0.1% | -0.7%
> O=C(Nc1ccc2nsnc2c1)N1CCCCCC1
  1.0 | -48.1% | -0.6% | 2.3%
> C/C(=N\NC(=O)c1c(C)nc2ccccn12)c1cccc([N+](=O)[O-])c1
  -18.1 | -8.1% | 2.0% | -11.8%
> O=C(CSc1ccc2ccccc2n1)N1CCC(c2noc3ccc(F)cc23)CC1
  -4.3 | -10.9% | 1.4% | -5.3%
> CCC(=O)NCc1cc(-c2nn(C)c(=O)c3ccccc23)ccc1OC
  3.7 | -6.3%&-6.1% | 0.9% | 9.4%
> COc1ccc(/C=N/OC/C(O)=C(\C#N)c2nc3ccccc3[nH]2)cc1
  -0.3 | -0.2% | -2.3% | -2.1%
> Cn1c(=O)c2c(nc(Br)n2Cc2nnc(N)s2)n(C)c1=O
  7.1 | 7.1% | -0.2% | ?
> COc1ccccc1/C=C/C(=O)OCC(=O)NC1CCCCCC1
  . | . | 1.3% | -1.7%
> COc1ccc(N2CCN(C(=O)CN(Cc3ccc(Cl)cc3)S(C)(=O)=O)CC2)cc1
  1.7 | 9.1% | -3.1% | -1.9%
> Cc1c(NS(=O)(=O)c2cc(Br)cc3c2N(C(=O)C2CC2)CC3)c(=O)n(-c2ccccc2)n1C
  -4.4[21.1 µM] | -0.2% | 0.1% | -3.8%
> CC1=CC(c2ccccc2)n2nc(N3C(=O)c4ccccc4C3=O)nc2N1 (centres undefined)
  5.6 | -2.1% | -6.4% | 0.8%
> CCn1c2ccccc2c2cc(NC(=O)c3cc(OC)cc(OC)c3)ccc21
  -2.3 | 22.4% | 1.6% | -23.6%
> Cc1ccc2nc(SCC(=O)Nc3ccc4sc(C)nc4c3)c(C#N)cc2c1
  -4.6 | -15.8% | 9.2% | -4.3%
> COc1ccc(C2SCC(=O)N2CCc2ccc(OC)c(OC)c2)cc1 (centres undefined)
  ? | 24.5% | 5.1% | 5.2%
> Cn1c(-c2csc(-c3cccc(C(F)(F)F)c3)n2)n[nH]c1=S
  -5.2 | 0.1% | -3.8% | 13.3%
> CCc1c(C)nc2ncnn2c1NCc1cccs1
  5.7 | 6.5% | -0.5% | 5.0%
> Nc1nnc(SCC(=O)OCc2ccccc2)s1
  -3.7 | -0.2% | -5.1% | 2.9%
> O=C1CS/C(=N/N=C/c2ccncc2)N1
  2.0 | -6.7% | -2.4% | 7.2%
> O=c1c2ccccc2cnn1CCOc1cccc(Br)c1
  . | -51.4% | 2.9% | 25.5%
> COc1ccc(SCCN2CC[C@@H](NC(=O)OCc3ccccc3)CCC2=O)cc1
  . | . | -2.1% | -11.1%
> CCOC(=O)c1sc(=S)n(C)c1NC(=O)c1ccccc1Cl
  4.6 | -1.6% | -4.3% | -2.1%
> COCCOc1cc(-n2cccc2)c(Cl)cc1Cl
  -6.3 | -3.3% | 0.1% | -3.0%
> COC(=O)c1sc(C(=O)OC)c(C(=O)OC)c1C(=O)OC
  0.9 | -5.3% | 5.1% | 14.4%
> COc1cc2c(cc1OC)CN(C(C)C(=O)Nc1ccc(NC(C)=O)cc1)CC2 (centres undefined)
  -2.2 | -1.8% | ? | -0.2%
> COc1ccc(CNC(=O)C2CCN(S(=O)(=O)c3cccnc3)CC2)cc1
  . | 1.7% | 0.0% | -17.3%
> CC(NC(=O)c1ccc(S(=O)(=O)Nc2ccccc2Cl)cc1)c1ccncc1 (centres undefined)
  . | . | -3.1% | -4.3%
> CC(C)N1CCN(Cc2ccc(Sc3nncn3C)o2)CC1CCO (centres undefined)
  -1.3 | 1.1% | 0.4% | -3.7%
> O=C1NC2(CCCC2)N=C1c1ccc(Cl)cc1
  3.4 | -20.3% | -1.7% | 1.9%
> CC(C(=O)Nc1ccc2c(c1)OCO2)N1CCN(C)CC1 (centres undefined)
  -4.3 | 0.0% | -4.3% | 23.5%
> COc1cc2c(cc1OC)C(c1ccccc1)N(C(=O)C(C)(C)C)CC2 (centres undefined)
  . | 2.4% | 2.2% | 5.9%
> Cc1ccc(C2CC(=O)Nc3cc4c(cc32)OCO4)o1 (centres undefined)
  2.7 | 1.9% | -1.8% | 0.7%
> NC(=O)c1ccc(Cc2ncc(C(F)(F)F)cc2Cl)s1
  -0.4 | -7.2% | -0.6% | 15.0%
> NS(=O)(=O)c1ccc(CCNC(=O)CCCn2ncn3c(cc4occc43)c2=O)cc1
  . | -0.6% | -2.4% | 1.1%
> O=C(COc1ccc2ccccc2c1Br)NNC(=O)Nc1ccccc1
  -0.7 | -7.6% | -1.0% | 1.7%
> CCOC(=O)COc1ccc(C(=O)NC2CCCCC2)cc1
  -3.6 | -6.7% | 2.3% | 0.5%
> CCN(CC)C(=O)CCn1nc(-c2ccc(C)cc2)c2ccccc2c1=O
  . | 1.8% | 1.2% | 5.4%
> COCCOC(=O)c1c(C)oc2ccc(NS(=O)(=O)c3ccc(C)cc3)cc12
  -5.0 | 5.1% | -0.7% | 12.3%
> Cc1sc2ncnc(N(C)Cc3ccco3)c2c1C
  -2.9 | -9.9% | -3.8% | 1.3%
> COC(=O)c1ccc(NC(=O)Cn2nc(SC)n(N)c2=S)cc1
  -0.9 | -1.6% | -5.3% | 1.0%
> CCOC(=O)C(Cc1ccccc1)C(=O)Nc1ccc(NC(=O)C(Cc2ccccc2)C(=O)OCC)cc1 (centres undefined)
  3.1 | -1.6% | -3.6% | 1.5%
> C=CCNc1nc(C(=O)OCC(=O)N(Cc2ccccc2)C(C)C)cs1
  . | . | -1.8% | 37.2%
> Cc1ccc2c(c1)nnn2C1CCN(C(=O)c2cccs2)CC1
  4.1 | -7.3% | -4.1% | -6.0%
> COC(=O)c1cc(S(=O)(=O)N2CCN(c3ccc(C(C)=O)cc3)CC2)cn1C
  . | 1.3% | 2.6% | -1.4%
> O=c1oc2ccccc2cc1-c1nc2ccccc2o1
  ? | -36.8% | ? | -26.1%
> C=CCc1cccc(CNc2nc3ccccc3n2CC)c1O
  -17.0 | 6.5% | 4.4% | 17.3%
> Cc1ccnc(N/C=C(/NC(=O)c2ccccc2)C(=O)NN)n1
  -4.0 | -2.2% | 4.7% | -4.3%

# An excerpt, so the mix of outcomes need not match the whole.
